# Screens as filed in PubChem BioAssay.
# LASV entry inh: Lassa virus entry inhibition; Lassa virus pseudotype entry inhibition, cell reporter; control for the full effect not named in the record; Potency, µM (doses to about 37.9 µM), inactives show at the top dose activity change, negative = inhibition, usual class: inhibitors; 1.2% of 300,000 active; active means well fitted inhibition curve with a large enough effect; inconclusive means small, poorly fitted or top-dose-only effect, or effect the other way; inactive means flat fitted curve, though single readings scatter; tested in HEK293 cells; note: % is set by controls: 0 for no effect and ±100 for the full control effect; nearly all actives have a fitted effect of over 50% in size; luciferase read-out
# SARS PLP yeast: SARS-CoV PLP inhibition in yeast; Potency, µM (top dose mostly 32.9 µM), for the others: at the top dose activity, positive = growth rescue; S. cerevisiae expressing SARS-CoV PLpro, growth rescue; control for the full effect not named in the record; 0.19% of 330,000 active; note: 0% is about no effect; nearly all actives have a fitted effect of over 55% in size; growth read by luminescence after 48 h
# NS1 inh: influenza NS1 inhibition | S. cerevisiae slowed by influenza A NS1, growth recovery by OD600 | Potency, µM (highest dose often 46.1 µM), for inactives: at the highest dose activity, positive = more growth | 0.4% of 270,000 active | AID 2326; note: actives are rising curves; nearly all actives have a fitted effect of over 50% in size
#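 Recovery from NS1-induced slow growth read by OD600 in budding yeast switched to galactose assay medium (pH 6.0, -URA) at 1:100 dilution. Compound 23 nl per well; the matching strain lacking NS1 serves as control.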
# StopGo reporter: lowers the luciferase signal of an FMDV 2A StopGo reporter; human cells with a luciferase reporter of 2A StopGo recoding; control for the full effect not named in the record; AID 1159524; 1.2% of 410,000 active; Potency, µM (top dose mostly 57.9 µM), for inactives: top-dose signal change, negative = less light; active = well fitted falling curve with a large enough effect; inconclusive = small, poorly fitted or top-dose-only effect; inactive = no such curve, though single readings can be large or run the other way; tested in HEK293T cells; note: % is set by controls: 0 for no effect and ±100 for the full control effect; nearly all actives have a fitted effect of over 45% in size; luciferase light after 4 h
# Marburg entry inh: Marburg virus entry inhibition. Marburg virus pseudotyped entry inhibition, cell reporter; control for the full effect not named in the record; about a third of the inactives were read at about 46 µM. Potency, µM (titrated, usually from 37.8 µM), without a hit: top-dose activity change, negative = inhibition, most hits filed as inhibitors. 1.8% of 300,000 active. AID 540276; active = well fitted inhibition curve with a large enough effect; inconclusive = small, poorly fitted or top-dose-only effect, or effect the other way; inactive = flat fitted curve, though single readings scatter; tested in HEK293 cells; about a fifth of its hits are not listed in these tables; note: % is set by controls: 0 for no effect and ±100 for the full control effect; luciferase read-out
# RE007 growth inh: less growth of the S. pombe RE007 Vpr strain | S. pombe RE007 Vpr strain, BacTiter-Glo ATP luminescence, 24 h; control for the full effect not named in the record | Potency, µM (series often up to 92.2 µM), for inactives: at the highest dose activity change, negative = less growth | 0.21% of 360,000 active; active = well fitted falling curve with a large enough effect; inconclusive = small, poorly fitted or top-dose-only effect; inactive = no such curve, though single readings can be large or run the other way;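 note: % is set by controls: 0 for no effect and ±100 for the full control effect; nearly all actives have a fitted effect of over 50% in size; the assay follows cell death caused by Vpr and the record does not say whether a fall means rescue or toxicity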
#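 Fission yeast RE007 carrying one integrated HIV-1 vpr copy, seeded at OD 0.01 in PMG+AL medium with 23 nL pinned compound. Grown 24 h at 30 degrees; viability read by BacTiter-Glo luminescence after 5 min.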
# Cruzain noTriton: cruzain (T. cruzi) inhibition without detergent | P25779 | purified cruzain, Z-FR-AMC fluorescence, no detergent | Potency, µM, inactives show max response, negative = inhibition, actives largely listed as inhibitors | 2.3% of 200,000 active; active = well fitted curve in the direction sought with a large enough effect; inconclusive = small, poorly fitted or top-dose-only effect, or another doubt; inactive = no such curve, though single readings can be large; an effect the other way counts as inactive or inconclusive;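 note: plate controls were enzyme without inhibitor for no effect and buffer without enzyme for full effect; nearly all actives have a fitted effect of over 40% in size; top concentration of the series not given in the record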
# Target sequence (P25779 123-467 limits assumed): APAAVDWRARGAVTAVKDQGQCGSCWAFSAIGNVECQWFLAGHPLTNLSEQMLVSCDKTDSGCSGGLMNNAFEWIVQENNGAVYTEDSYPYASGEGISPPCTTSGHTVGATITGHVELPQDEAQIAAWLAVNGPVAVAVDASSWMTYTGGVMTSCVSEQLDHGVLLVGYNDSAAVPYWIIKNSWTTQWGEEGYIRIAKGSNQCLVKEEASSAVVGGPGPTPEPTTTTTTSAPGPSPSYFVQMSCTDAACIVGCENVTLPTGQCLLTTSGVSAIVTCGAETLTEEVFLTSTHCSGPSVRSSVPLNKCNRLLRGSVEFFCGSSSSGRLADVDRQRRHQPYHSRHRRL
#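 Detergent-free condition (0.00005% Triton X-100) in acetate buffer pH 5.5 with DTT. 1.5 nM enzyme and compound were pre-mixed 15 min, then 2 uM Z-FR-AMC substrate added; reaction progress from fluorescence change between first and third reads (60 s).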
# Cruzain inh Det: inhibitors of Trypanosoma cruzi cruzain with detergent; Potency, µM, for the others: max response, negative = inhibition, actives largely listed as inhibitors; 0.43% of 200,000 active; purified cruzain, Z-FR-AMC fluorescence, 0.01% Triton; active = well fitted curve in the direction sought with a large enough effect; inconclusive = small, poorly fitted or top-dose-only effect, or another doubt; inactive = no such curve, though single readings can be large; an effect the other way counts as inactive or inconclusive;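 note: plate controls were neutral wells for no effect and buffer without enzyme for full effect; nearly all actives have a fitted effect of over 40% in size; top concentration of the series not given in the record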
#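 Detergent-containing run (0.01% Triton X-100) in acetate buffer pH 5.5 with 5 mM DTT: enzyme at 1.5 nM final, 15 min compound preincubation at room temperature, then 2 uM Z-FR-AMC substrate. Activity taken as 60 s fluorescence increase at 360/450 nm.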
# * marks the source's active call; other numbers are inactive results; ? = inconclusive; . = not tested or not shown; & = joins results of further samples; [ ] = dose if it differs, or a comment. Unless noted, calls come from the whole dose curve; as a rule, active means well fitted rising curve with a large enough effect; inconclusive means small, poorly fitted or top-dose-only effect; inactive means no such curve, though single readings can be large or run the other way. Potency is the fitted concentration of half-maximal effect.
SMILES,LASV entry inh,SARS PLP yeast,NS1 inh,StopGo reporter,Marburg entry inh,RE007 growth inh,Cruzain noTriton,Cruzain inh Det
CCOc1cc(/C=N/NC(=O)c2cccnc2)cc(Br)c1OCC(N)=O,.,0%,6%,-3%,-17%[46.1 µM],-11%,.,.
O=C(O)CSc1nnc(COc2cccc3ccccc23)n1Cc1ccccc1,17%[46.1 µM],-2%,-3%,-23%,13%[46.1 µM],6%,.,.
CCOc1ccc2[nH]c(C(=O)N/N=C/c3cccc(OC)c3OC)cc2c1,.,-3%,-7%,-16%,.,-5%,.,.
COC(=O)NCCOc1cc(C)ccc1C,-3%,0%,0%,-1%,11%,8%,2%,0.2%
CC(NC(=O)COC(=O)C12CC3CC(CC(O)(C3)C1)C2)c1ccccc1 (stereo unspecified),10%,2%,.,-1%,6%,4%,.,.
COc1ccc(/C=C(/NC(=O)c2ccccc2)C(=O)Nc2cccc(C(=O)O)c2)cc1,.,1%,-2%,-13%,.,5%,.,.
O=C(O)c1ccc(/C=N/NC(=S)NC2CCCCC2)cc1,-3%,1%,4%,24%,1%[46.1 µM],13%,.,.
O=C(Oc1cc(=O)oc2ccccc12)c1ccco1,0%,-10%,19%,-21%,-4%,5%,-1%,3.1%
C=CCn1c(COc2ccc(OC)cc2)nc2ccccc21,.,-4%,-34%,64%[activator],.,-6%,.,.
Cc1ccc(C)c(NC(=O)C2CCN(S(=O)(=O)c3c(C)noc3/C=C/c3cccs3)CC2)c1,-2%[46.1 µM],.,.,-19%,-1%[46.1 µM],.,-26%,-2.5%
O=C(C1CCN(S(=O)(=O)N2CCOCC2)CC1)N1CCC2(CC1)OCCO2,31%[14.3 µM],6%,-1%,-17%,0%,14%,0%,2.5%
CCSc1ncc(Cl)c(C(=O)Nc2ccc(S(=O)(=O)Nc3onc(C)c3C)cc2)n1,-9%,-6%,-30%,-23%,?,17%,-3%,-4.4%
COc1ccc(C(=O)N2CCN(Cc3ccccc3C(F)(F)F)CC2)cc1,10%[46.1 µM],-2%,-13%,-3%,0%[46.1 µM],6%,.,.
COc1ccc(OCC(=O)N2CCN(C(=O)c3ccc(OC)c(OC)c3)CC2)cc1,5%[46.1 µM],.,.,15%,?,.,4%,?
Cc1nc(C)c(-c2csc(Nc3ccc(F)cc3)n2)s1,?,-24%,.,-11%,?,-18%,.,.
Clc1ccc(-n2nnc(-c3cccnc3)n2)cc1Cl,.,-2%,2%,78%[activator],.,8%,.,.
CS(=O)(=O)N1CCN(CC(=O)NC2CCCCC2)CC1,7%,-1%,1%,-7%,5%[46.1 µM],0%,.,.
CSc1ncc(Cl)c(C(=O)Nc2cccnc2)n1,.,1%,7%,-12%,.,-2%,.,.
Cc1cc(NC(=O)c2sc(Nc3ccc(F)c(Cl)c3)nc2N)no1,?,1%,.,-3%,-42%,10%,.,.
COc1ccc(Cc2nnc(NC(=O)C3CCCO3)s2)cc1OC (stereo unspecified),-16%,3%,-21%,7%,13%,1%,-1%,1.5%
Cc1ccc(NC(=O)Cc2coc3ccc(C(C)C)cc23)cc1Cl,?,.,.,0%,?,.,4%,-1.2%
COC(=O)c1cc(OC)c(OC)cc1NC(=S)Nc1cccc(Cl)c1,11%,-5%,-7%,10%,11%,-8%,0%,4.2%
CC(=O)Nc1ccc(-c2nc3c(C)cccc3[nH]2)cc1,-4%,-4%,-1%,37%[activator],?,0%,-3%,-8.4%
O=c1cc(N2CCN(c3ccccc3)CC2)[nH]c(=O)n1Cc1ccc(F)cc1,.,1%,-7%,0%,.,-5%,-23%,-8.3%
Cn1c(=O)c(=O)n(C)c2cc([N+](=O)[O-])c([N+](=O)[O-])cc21,-20%,4%,0%,?,?,9%,.,.

# Following part:
SMILES,LASV entry inh,SARS PLP yeast,NS1 inh,StopGo reporter,Marburg entry inh,RE007 growth inh,Cruzain noTriton,Cruzain inh Det
CCOC(=O)Cc1csc(NC(=O)CSc2nnc(-c3ccc(OC)cc3)n2C)n1,-15%,6%,0%,-20%,-2%&-2%,2%,19%,10%
Cc1nnc(SC(C)C(=O)Nc2ccc(Cl)cn2)n1Cc1ccccc1 (stereo unspecified),25%,1%,-5%,.,8%,1%,7%,1.9%
CCc1nccn1CCC(=O)N1CCCC(N2CCN(c3ccccc3C)CC2)C1 (stereo unspecified),1%,1%,7%,-10%,-24%,-4%,.,.
Cc1ccc(C(=O)N2CCN(C)CC2)cc1[N+](=O)[O-],.,1%,4%,1%,.,13%,.,.
c1ccc2c(c1)[nH]c1nc(SCCN3CCOCC3)nnc12,?,2%,-1%,-15%,?,-29%,-27%,-11%
N/C(=N\OC(=O)Nc1cccc(C(F)(F)F)c1)c1ccno1,.,-1%,-6%,-22%,.,-5%,.,.
O=C(O)/C=C\c1cccc(-n2cnnn2)c1,-5%,2%,6%,-12%,?,-2%,4%,0.7%
Cc1ccc(C)c(Cn2nc(C)n3c(cc4cc(C)ccc43)c2=O)c1,?,.,.,-2%,8%[46.1 µM],.,-9%,-0.1%
COc1ccc(OC)c(NC(=O)CNC(=O)c2cccs2)c1,18%,0%,-1%,4%,18%,-8%,7%,1.2%
O=C(N/N=C\c1cccs1)c1ccccc1-n1cccc1,-14%,0%,.,-17%,-17%[14.2 µM],19%,.,.
O=C1C2ON(c3ccccc3)C(c3ccccc3F)C2C(=O)N1c1ccccc1 (stereo unspecified),6%,-5%,-45%,4%,3%,-4%,3%,-5.9%
COc1ccc(OC)c(-c2csc(NC(=O)Cc3ccc(OC)c(OC)c3)n2)c1,?,-1%,13%,-22%,4%[46.1 µM],1%,.,.
CCOc1ccccc1NC(=O)CNC(=O)N1CC(=O)Nc2ccccc21,.,1%,-3%,19%,.,2%,.,.
Cc1c(C)c2ccc(OC(C)C(=O)N3CC[C@@]4(O)CCCC[C@H]4C3)cc2oc1=O (stereo partly specified),.,-2%,12%,-11%,.,-10%,.,.
Cc1ccsc1C1Nc2ccccc2-c2nc3ccccc3n21 (stereo unspecified),-9%,-19%,-32%,15%,?,-16%,?,1.3%
Cc1ccsc1C(=O)OCC(=O)N1CCN(c2ccccc2)CC1,-1%[46.1 µM],-14%,.,-1%,?,-21%,.,.
CCOc1ccc(C(c2nnnn2C(C)(C)C)N2CCN(C(=O)c3ccco3)CC2)cc1 (stereo unspecified),.,1%,-2%,7%,15%[46.1 µM],12%,.,.
Cc1nn(C)c(C)c1/C=C/C(=O)c1cccs1,0%,.,.,13%,5%,?,.,.
O=C(CSc1nnc(CNC(=O)c2cccs2)o1)Nc1ccc(Br)cc1,4%[46.1 µM],3%,-1%,-11%,3%[46.1 µM],16%,.,.
COc1ccccc1CC1CC(=O)N(c2ccccc2)C1=O (stereo unspecified),.,-3%,-4%,-10%,.,-5%,.,.
CC(c1ccc(F)cc1)n1c(Cn2ncc3ccccc3c2=O)n[nH]c1=S (stereo unspecified),-9%,1%,-1%,?,13%[46.1 µM],18%,.,.
Cc1ccc(C)c(-n2cc(CNCCCn3cccn3)c(-c3ccccc3)n2)c1,?,-1%,0%,-17%,10µM*,-5%,.,.
C=CCn1c(NCc2ccco2)nc2ccccc21,.,-3%,9%,-7%,.,-1%,.,.
Cc1cccc(N2CCN(C(=S)c3ccc4c(c3)OCO4)CC2)c1,?,.,.,-9%,?,-12%,.,.
Cc1sc(NC(=O)c2ccccc2F)c(CN2CCCCC2)c1C,26%,-21%,-17%,0%,-2%,-25%,-3%,-2.3%

# Continued, starting with the last 2 of the part before.
SMILES,LASV entry inh,SARS PLP yeast,NS1 inh,StopGo reporter,Marburg entry inh,RE007 growth inh,Cruzain noTriton,Cruzain inh Det
Cc1cccc(N2CCN(C(=S)c3ccc4c(c3)OCO4)CC2)c1,?,.,.,-9%,?,-12%,.,.
Cc1sc(NC(=O)c2ccccc2F)c(CN2CCCCC2)c1C,26%,-21%,-17%,0%,-2%,-25%,-3%,-2.3%
c1ccc(-c2nnc(CN3CCN(C(c4ccccc4)c4ccccc4)CC3)o2)cc1,.,-7%,1%,-10%,.,15%,.,.
COc1ccc(-n2nc(C(=O)NCC(=O)Nc3cc(OC)ccc3OC)c3ccccc3c2=O)cc1,.,-2%,-4%,?,.,-8%,.,.
Cc1cc(C)n(-c2cc(C)c(C)cc2Br)n1,4%,0%,-14%,-17%,?,2%,-2%,-1.3%
O=C(NCCc1ccccn1)C1CCCN(S(=O)(=O)Cc2ccccc2)C1 (stereo unspecified),21%,-8%,-8%,3%,-12%[46.1 µM],-12%,5%,5.9%
CCOC(=O)Cc1nnc(NC(=O)CSc2ccccc2)s1,-16%,4%,-16%,-12%,?,-4%,0%,-0.1%
O=C(CC(C(=O)O)C1CCCO1)NCc1ccccc1 (stereo unspecified),-1%,1%,6%,-9%,16%,-2%,12%,2.8%
O=C(O)C1CN(c2nc(Cl)ccc2[N+](=O)[O-])C1,13%,1%,6%,-1%,?,-6%,.,.
O=C(NCC(c1ccc(Cl)cc1)N1CCCCC1)c1ccc(F)cc1 (stereo unspecified),-26%[46.1 µM],.,.,-3%,2.8µM*,.,-2%,0.7%
O=Cc1cc2cc3c(cc2nc1Cl)OCCO3,.,0%,-4%,40%[activator],.,0%,.,.
Cc1cccc(NC(=S)NCC(c2cccnc2)N(C)C)c1 (stereo unspecified),0%,5%,1%,-20%,1%,-2%,0%,-1.9%
O=S(=O)(Nc1cccnc1Cl)c1ccc(F)cc1,-7%[46.1 µM],-2%,2%,11%,-4%[46.1 µM],10%,.,.
O=S(=O)(c1ccccc1F)N1CCN(CC(O)c2ccccc2)CC1 (stereo unspecified),-2%[46.1 µM],4%,.,-15%,-22%[46.1 µM],-8%,.,.
O=C(NCC1CCCO1)c1cc2ccccc2oc1=O (stereo unspecified),-4%[46.1 µM],1%,0%,23%,2%[46.1 µM],6%,.,.
COc1cc2c(cc1OC)C(Cc1ccccc1[N+](=O)[O-])=NCC2,-3%[46.1 µM],.,.,-9%,8%,-11%,.,.
O=C(OCC(=O)C12CC3CC(CC(C3)C1)C2)c1ccccn1,.,3%,-10%,7%,.,17%,.,.
